# Screens as filed in PubChem.
# Tau FP inhib – tau fibrillization inhibition (FP); 0.39% of 280,000 active; K18 P301L tau heparin fibrillization, Alexa594 FP, 6 h; Potency, µM (highest dose often 57.7 µM), for the others: at the highest dose activity, negative = inhibition, most hits filed as inhibitors; AID 1468; also: potency is read from the fitted curve at half-maximal effect; % is scaled to controls: 0 for no effect and ±100 for the full control effect; nearly all actives have a fitted effect of over 55% in size
# Target sequence (P10636 561-689 P618L limits assumed): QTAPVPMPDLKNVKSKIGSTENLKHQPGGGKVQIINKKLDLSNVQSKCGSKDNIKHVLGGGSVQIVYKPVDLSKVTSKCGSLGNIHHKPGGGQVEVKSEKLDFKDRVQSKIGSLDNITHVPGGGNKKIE
#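 Human K18 P301L fragment (15 uM unlabeled plus 0.24 uM Alexa 594-labeled) in 100 mM sodium acetate pH 7 with compound, aggregation induced by 20 uM heparin for 6 hr at 37 C. ThT (30 uM) added for 1 hr, then Alexa 594 FP read.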
# Epigenetic derep – derepresses silenced GFP reporter in murine cells; murine LDR cells, GFP reporter derepression, 30 h; Potency, µM (titrated, usually from 53.9 µM), for the others: top-dose GFP activation, usual class: activators; 0.2% of 280,000 active; AID 1865; also: potency is read from the fitted curve at half-maximal effect; % of control where 0% means no effect; nearly all actives have a fitted effect of over 60% in size
#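 Readout is the number of GFP-expressing murine LDR cells, counted by cytometry following washing. Cells were treated with compound for 30 h at 37 C; the stably integrated CMV-GFP locus is normally silent.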
# GLA spleen mod – inhibits or activates alpha-galactosidase in human spleen homogenate; AID 2107; 0.008% of 240,000 active; human spleen homogenate, 4MU-alpha-Gal fluorescence, 40 min; Potency, µM (titrated, usually from 80 µM), for inactives: top-dose activity change, negative = inhibition, usual class: inhibitors;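 also: potency is read from the fitted curve at half-maximal effect; 0% = enzyme with vehicle and -100% = no enzyme basal signal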
# Target sequence (P06280 32-429 limits assumed): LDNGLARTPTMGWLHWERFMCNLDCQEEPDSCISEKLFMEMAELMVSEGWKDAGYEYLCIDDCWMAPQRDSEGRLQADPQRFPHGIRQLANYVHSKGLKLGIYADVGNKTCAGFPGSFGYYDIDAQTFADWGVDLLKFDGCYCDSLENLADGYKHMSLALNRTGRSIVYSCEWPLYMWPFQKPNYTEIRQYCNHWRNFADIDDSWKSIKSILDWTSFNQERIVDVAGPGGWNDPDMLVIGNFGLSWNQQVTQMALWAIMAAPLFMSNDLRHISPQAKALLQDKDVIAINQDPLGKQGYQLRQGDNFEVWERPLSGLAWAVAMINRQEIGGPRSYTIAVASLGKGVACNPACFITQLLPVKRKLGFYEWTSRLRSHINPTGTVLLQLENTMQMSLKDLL
#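 Spleen homogenate 1 ug + cpd (titration) + 4-MU-alpha-D-galactopyranoside 1 mM; 37C 40 min; 50 mM citrate/phosphate pH 5.0, 0.01% Tween-20; stop pH 10; fluorescence 365/440; AC50 via Hill.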
# TRb SRC2 PPI – TRbeta-SRC2 interaction inhibition; P10828; TRbeta-SRC2 peptide binding, fluorescence polarization; receptor liganded with 1 µM T3; Potency, µM (doses to about 106 µM), for the others: top-dose activity change, negative = inhibition, most hits filed as inhibitors; 0.065% of 280,000 active; AID 1469;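 also: potency is read from the fitted curve at half-maximal effect; plate controls were bound peptide for no effect and peptide without receptor for full effect; nearly all actives have a fitted effect of over 50% in size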
# Target sequence (P10828 whole entry, looked up): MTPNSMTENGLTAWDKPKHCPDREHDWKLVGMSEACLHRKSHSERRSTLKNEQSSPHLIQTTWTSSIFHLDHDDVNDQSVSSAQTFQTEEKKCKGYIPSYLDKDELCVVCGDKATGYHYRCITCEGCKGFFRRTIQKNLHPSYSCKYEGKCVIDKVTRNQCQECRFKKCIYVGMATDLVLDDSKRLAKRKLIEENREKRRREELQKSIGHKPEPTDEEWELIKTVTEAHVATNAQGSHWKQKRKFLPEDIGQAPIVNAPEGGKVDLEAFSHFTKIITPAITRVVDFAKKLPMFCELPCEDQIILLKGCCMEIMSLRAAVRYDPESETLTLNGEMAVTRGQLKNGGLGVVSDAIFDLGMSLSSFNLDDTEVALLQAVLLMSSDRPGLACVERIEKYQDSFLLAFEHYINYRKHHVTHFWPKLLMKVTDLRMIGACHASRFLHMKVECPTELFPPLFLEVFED
#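 TRb LBD 0.6 uM + Texas Red SRC2 peptide 20 nM, 1 uM T3, Tris buffer w/ 5% DMSO; compound pinned, 5 h RT; FP read ex 555/em 632; normalized to unbound and bound controls.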
# Tau fluor cs – counter-screen for tau fibril formation inhibitors | tau K18 P301L Alexa594 fluorescence, heparin fibrillization | Potency, µM (highest dose often 57.7 µM), inactives show top-dose activity change, negative = decrease | 0.93% of 280,000 active; also: potency is read from the fitted curve at half-maximal effect; % is scaled to controls: 0 for no effect and ±100 for the full control effect; nearly all actives have a fitted effect of over 55% in size
#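 Human tau K18 P301L (15 uM unlabeled, 0.24 uM Alexa 594-labeled) in 100 mM sodium acetate pH 7 with 20 uM heparin, 6 hr at 37 C. ThT 30 uM added, 1 hr ambient; Alexa 594 FP and total fluorescence read at 555/632 nm.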
# TexasRed fluor – counter-screen for TRb-SRC2 inhibitors: fluorescence interference; TRb/SRC2 Texas Red total fluorescence interference; 0.29% of 280,000 active; Potency, µM (top dose mostly 106 µM), for inactives: at the top dose fluorescence change, negative = quenching; AID 1479; active = well fitted curve in either direction with a large enough effect; inconclusive = small, poorly fitted or top-dose-only effect; also: potency is read from the fitted curve at half-maximal effect; % is scaled to controls: 0 for no effect and ±100 for the full control effect
#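 Flags fluorescent or light-absorbing compounds by total fluorescence, S + 2P, at 555 nm excitation and 632 nm emission. Mixture: 20 nM Texas Red SRC2 peptide, 0.6 uM human TRb LBD, 1 uM T3, 5% DMSO; compound exposure 5 h at ambient temperature.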
# CBFb RUNX1 block – blocks binding between human CBF-beta and RUNX1 | Q01196+Q13951 | AlphaScreen CBFb-His/RUNX1-biotin binding, biochemical | Potency, µM (titrated, usually from 59.8 µM), without a hit: at the highest dose activity, negative = inhibition, most hits filed as inhibitors | 230,000 tested, under 10 active | AID 1477; also: % of control where 0% means no effect
#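 Read-out: AlphaScreen. Format: His-CBF-beta with biotinylated RUNX1 (30 nM each) preincubated 20 min, compound 15 min, Ni-chelate plus streptavidin beads 90 min; room temperature throughout.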
# Numbers without * were called inactive; ? = inconclusive; & = joins results of further samples; [ ] = dose if it differs, or a comment. Unless noted, calls follow the shape of the dose curve; as a rule, active = well fitted curve in the direction sought with a large enough effect; inconclusive = small, poorly fitted or top-dose-only effect, or another doubt; inactive = no such curve, though single readings can be large; an effect the other way counts as inactive or inconclusive.
SMILES,Tau FP inhib,Epigenetic derep,GLA spleen mod,TRb SRC2 PPI,Tau fluor cs,TexasRed fluor,CBFb RUNX1 block
CCCCC(C(=O)NCCC(C)C)N(CCCN1CCOCC1)C(=O)c1snc(C(N)=O)c1N (stereo not given),10%,0.0%,7%,-7%,-2%,-1%,0%
COc1cccc(C(=O)Nc2ccc(C)cc2)c1,3%,0.0%,-6%,8%,12%,-1%,3%
CC(C)Sc1nc(N2CCCC2)c2c(c1C#N)CC(C)(C)OC2,2%,-2.1%,-8%,-9%,-8%,-2%,3%
CCOc1ccc2nc(N3C(=O)CNC3=S)sc2c1,-4%[0.0958 µM],17%,6%,-7%,10%[0.0958 µM],-3%,9%
Cc1ccccc1CSc1nc2n(n1)C(c1cccs1)C1=C(CCCC1=O)N2 (stereo not given),-6%,-0.2%,13%,2%,-30%,2%,1%
Cc1cc(O)c(NC(=O)c2ccc(Br)o2)cc1C,8%,-1.6%,1%,3%,-5%,-7%,3%
Cc1ccc(CNCC(O)(c2ccccc2)c2ccc(Cl)cc2)cc1 (stereo not given),-9%,-1.3%,2%,1%,-15%,0%,21%
CCc1nc(NCC2CCCN2CC)c2nnn(Cc3ccccc3F)c2n1 (stereo not given),-5%,0.8%,2%,-12%,-13%,0%,2%
CC(=O)c1cc(C#N)c(N2CCCCC2)nc1C,-1%,-0.9%,4%,7%,-1%,3%,10%
N#Cc1nc(COc2ccc(Cl)cc2)oc1N1CCN(Cc2ccccc2)CC1,-1%,-2.3%,14%,-9%,-13%,-2%,?
Cc1ccc(C(=O)Nc2nnc(-c3ccc(C(C)(C)C)cc3)s2)cc1,3%,0.2%,5%,-2%,-4%,-1%,3%
CCC(C(=O)OCC(=O)Nc1cccc(S(=O)(=O)NC2=NCCCCC2)c1)c1ccccc1 (stereo not given),-4%,-4.5%,-9%,-5%,-15%,0%,6%
COc1ccc(NC(=O)c2cc(-c3cccs3)on2)cc1OC,3%,-0.9%,-4%,7%,-8%,-1%,4%
O=C(O)c1cc(C(=O)O)cc(-c2ccc(/C=c3/sc4nc5ccccc5n4c3=O)o2)c1,2%,-0.5%,1%,9%,-8%,?,-1%
COc1ccccc1NC(=O)CN1CCC(n2c(C)nc3cc(F)ccc32)CC1,-8%,2.1%,?,-6%,-3%,1%,-2%
CC1CCN(c2cc(N3CCOCC3)c([N+](=O)[O-])cc2F)CC1,3%,-1.1%,0%,-23%,?,-1%,5%
Cc1sc2nc3c(C(=O)N4CCCC4)cc(C(=O)c4ccccc4O)cn3c(=O)c2c1C,3%,1.1%,4%,-3%,-9%,-1%,-1%
O=C1[C@H](CC[C@H](O)c2ccc(F)cc2)[C@@H](c2ccc(O)cc2)N1c1ccc(F)cc1,-13%,1.1%,-8%,7%,-29%,3%,5%
NC(=S)N/N=C1\CC(c2ccc3c(c2)OCCCO3)Oc2ccc(F)cc21 (stereo not given),-10%,?,-1%,3%,-11%,-8%,-2%
CC(C)N(C(=O)/C=C/c1cccc([N+](=O)[O-])c1)C(C)C,1%,10%,-3%,-3%,10%,-1%,-3%
CC(C)CCn1c(=O)c2ccccc2n2c(CN3C(=O)NC4(CCC(C)CC4)C3=O)nnc12 (stereo not given),5%,-2.1%,1%,-1%,-6%,-6%,-7%
CC1(C)CC(=O)C2=C(C1)N=C1c3ccccc3C(=O)C1C2c1ccc(Cl)cc1 (stereo not given),10%,-2.2%,3%,-1%,?,-3%,?
Cc1ccc(CNC(=O)C2CN(S(C)(=O)=O)c3cc(Cl)ccc3O2)cc1 (stereo not given),-2%,-2.9%,7%,1%,-11%,-1%,2%
COc1ccc2[nH]c(C)c(C(=O)CN3CCN(C/C=C/c4ccccc4)CC3)c2c1,8%,-1.9%,3%,5%,-17%,-1%,-3%
COc1ccc(OC)c(-n2c(-c3cc(-c4ccccc4)n[nH]3)n[nH]c2=S)c1,8%,-1.3%,10%,0%[53 µM],-11%,0%[53 µM],-21%
N#C/C(=C(/O)C(Cl)c1ccccc1)c1nc2ccccc2s1 (stereo not given),-4%,13%,5%,-12%,-13%,2%,4%
COc1ccc(OCC(=O)Nc2cccc(OC)c2)cc1,2%,0.0%,-6%,-5%,-8%,-8%,-3%
COc1cc2c(cc1NC(=O)C1CCCO1)oc1ccccc12 (stereo not given),-5%,0.0%,5%,5%,-26%,0%,4%
CC1CCN(c2nc(-c3ccncc3)nc3ccccc23)CC1,-19%,-1.1%,-9%,3%,-25%,1%,4%
Cc1nc(N2N=C3/C(=C/c4ccc(F)cc4)CCCC3C2c2ccc(F)cc2)sc1C(=O)N(C)C (stereo not given),1%,2.8%,-12%,-4%,-4%,-7%,?

# Two consecutive records out of the list so far, quoted:
SMILES,Tau FP inhib,Epigenetic derep,GLA spleen mod,TRb SRC2 PPI,Tau fluor cs,TexasRed fluor,CBFb RUNX1 block
CC(C)CCn1c(=O)c2ccccc2n2c(CN3C(=O)NC4(CCC(C)CC4)C3=O)nnc12 (stereo not given),5%,-2.1%,1%,-1%,-6%,-6%,-7%
CC1(C)CC(=O)C2=C(C1)N=C1c3ccccc3C(=O)C1C2c1ccc(Cl)cc1 (stereo not given),10%,-2.2%,3%,-1%,?,-3%,?

# Carrying on.
SMILES,Tau FP inhib,Epigenetic derep,GLA spleen mod,TRb SRC2 PPI,Tau fluor cs,TexasRed fluor,CBFb RUNX1 block
Cc1cc(NC(=O)CC(C)(C)C)nc2c1c(=O)oc1ccccc12,2%,0.0%,0%,9%,0%,1%,-1%
O=C1CN(/N=C/c2ccc(-c3ccc([N+](=O)[O-])cc3)o2)C(=O)N1,-11%&-8%,-0.5%&0.8%,1%&-17%,-5%&2%,-12%&-12%,-9%&-4%,7%&16%
CC(C)(O)C(=O)NN(C(=O)c1ccccc1)c1ccc2ccccc2c1,1%,1.8%,0%,11%,-9%,0%,3%
Cc1cc(C(=O)COC(=O)c2ccc(O)cc2)c(C)n1CCc1ccc(F)cc1,?,2.9%,3%,-3%,?,1%,5%
COC(=O)CSc1nnc2n1C(C)(C)Cc1ccccc1-2,-2%,0.8%,1%,-3%,4%,-2%,-3%
Cc1cccc(Nc2nc3c(S(=O)(=O)c4ccccc4)nnn3c3ccccc23)c1C,-4%,0.0%,-9%,-5%,-1%,-1%,5%
Cn1c(=O)[nH]c(=O)c2c1nc(NC1CCCCC1)n2CCO,-4%,0.0%,5%,2%,-7%,-3%,2%
Nc1c(S(=O)(=O)c2cccs2)c2nc3ccccc3nc2n1CCc1ccccc1,?,0.0%,?,-17%,?,0%,?
Cc1cc(C(C)(C)C)oc1C(=O)N(CC(=O)NC1CCCC1)Cc1ccc(F)cc1,1%,-3.4%,1%,-5%,-5%,-1%,9%
Brc1ccc(Cn2c(-c3cncs3)nc3ccccc32)cc1,-5%,?,4%,4%,-7%,1%,7%
Cc1ccnc(N2CCC(C(=O)NNC(=O)c3ccccc3)CC2)n1,6%,-0.9%,-3%,-8%,5%,0%,2%
Cc1nc(N2CCN(Cc3ccc4c(c3)OCO4)CC2)c2cc(-c3ccccc3)sc2n1,-7%,-1.4%,-6%,0%,-9%,-2%,3%
COc1ccc(Oc2c(Cl)cnn(-c3ccccc3)c2=O)cc1,-7%,1.9%,-1%,2%,-5%,-1%,1%
COC(=O)c1sc(-c2ccccc2)cc1NC(=O)c1ccccc1,2%,1.0%,-7%,8%,-4%,-2%,-1%
COc1cc(C(c2nnnn2C2CCCC2)N2CCc3ccccc3C2)ccc1O (stereo not given),2%,3.7%,1%,0%,0%,0%,5%
COc1ccc(-c2ccc(OC)c([C@H]3[C@H]4C=CC[C@@H](C)[C@@H]4C(=O)N3Cc3ccccc3)c2)cc1,-1%,13%,2%,1%,1%,1%,-1%
CCOC(=O)C1CCN(C(=O)Nc2ccc3nc(C)c(C)nc3c2)CC1,2%,-3.4%,13%,2%,-5%,-1%,8%
COc1ccc(N(CC(=O)N2CCN(c3ccc(Cl)cc3)CC2)S(=O)(=O)c2c(C)n[nH]c2C)cc1,6%,-0.3%,-3%,-1%,-24%,0%,-4%
CC1(C)Cc2c(C#N)c(SCCOc3ccccc3)nc(N3CCOCC3)c2CO1,5%,0.0%,3%,0%,-13%,-4%,5%
CCOC(=O)c1cc(C#N)c(Oc2ccc(F)cc2)nc1-c1ccccc1,-7%,-1.1%,-13%,5%,-19%,-1%,29%
CN(C)c1ccc(C(=O)n2nnc3ccccc32)cc1,-11%,15%,8%,-2%,?,2%,5%
CC1=C(C(=O)Nc2ccccc2)C(c2ccncc2)n2nnnc2N1 (stereo not given),1%,3.1%,6%,7%,-22%,-3%,11%
Cc1cccc(N2CC3=C(C2=O)C(c2ccccc2)NC(=O)N3C)c1 (stereo not given),-1%,-1.0%,-5%,10%,-2%,1%,1%
CCCCOC(=O)/C=C/c1ccc(OC(=O)OC)c(OC(=O)OC)c1,-3%,-2.2%,0%,3%,-6%,-4%,5%
CC(C)C[C@H](NC(=O)c1nc[nH]c1C(=O)N(C)Cc1ccccc1)C(=O)OCc1ccccc1,2%,4.5%,-4%,4%,-26%,-1%,2%
S=c1[nH]nc(-c2ccc(Br)cc2)n1-c1ccc2c(c1)OCCO2,-6%,-4.3%,-5%,7%,-21%,0%,1%
O=C(c1ccc(NS(=O)(=O)c2cccs2)cc1)N1CCN(c2ccccc2Cl)CC1,2%,0.0%,-3%,-9%,-17%,-1%,-16%
COc1ccc(OC)c(C2NC(=O)NC(C)=C2C(=O)Nc2ccc(C)cc2)c1 (stereo not given),7%,-10%,6%,2%,0%,-7%,5%
COc1cc(-c2nc3cnccn3c2Nc2ccc(C(C)C)cc2)ccc1O,-3%&7%,-1.1%&1.9%,-6%,-3%&-8%,?,-1%&-3%,0%
CC(C)(C)n1nnnc1C(c1cccs1)N(Cc1cccnc1)Cc1ccccc1Cl (stereo not given),9%,-3.3%,5%,-5%,-18%,-4%,4%
CCOC(=O)c1c(NS(C)(=O)=O)sc2c1CCC(C)C2 (stereo not given),-1%,0.0%,8%,-3%,-16%,-5%,-6%
COc1ccc(N2CCn3c2nc2c3c(=O)n(CCCc3ccccc3)c(=O)n2C)c(OC)c1,13%,-1.1%,3%,-5%,-24%,-1%,-17%

# As entered above.
# GLA spleen mod with CC(C)C[C@H](NC(=O)c1nc[nH]c1C(=O)N(C)Cc1ccccc1)C(=O)OCc1ccccc1 stands at -4%
# TexasRed fluor with COc1cc(-c2nc3cnccn3c2Nc2ccc(C(C)C)cc2)ccc1O stands at -1%&-3%

# These rows are one share of the data; count on the stated rates, not on these rows.
